# Screens as filed in PubChem BioAssay.
# GLA inh pH 4.5: blocks human alpha-galactosidase A at pH 4.5 | P06280 | purified enzyme, 4-MU-alpha-Gal fluorescence, pH 4.5 | activity change, negative = inhibition, % at 105 µM | 230,000 tested, under 10 active | AID 1467; inconclusive = small, poorly fitted or top-dose-only inhibition, or a rising curve; inactive = flat fitted curve, though single readings scatter; no compound was filed as active;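 note: 0% = full activity with enzyme and -100% = basal without enzyme; dose as in the result columns while the protocol names 77 µM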
# Target sequence (P06280 whole entry, looked up): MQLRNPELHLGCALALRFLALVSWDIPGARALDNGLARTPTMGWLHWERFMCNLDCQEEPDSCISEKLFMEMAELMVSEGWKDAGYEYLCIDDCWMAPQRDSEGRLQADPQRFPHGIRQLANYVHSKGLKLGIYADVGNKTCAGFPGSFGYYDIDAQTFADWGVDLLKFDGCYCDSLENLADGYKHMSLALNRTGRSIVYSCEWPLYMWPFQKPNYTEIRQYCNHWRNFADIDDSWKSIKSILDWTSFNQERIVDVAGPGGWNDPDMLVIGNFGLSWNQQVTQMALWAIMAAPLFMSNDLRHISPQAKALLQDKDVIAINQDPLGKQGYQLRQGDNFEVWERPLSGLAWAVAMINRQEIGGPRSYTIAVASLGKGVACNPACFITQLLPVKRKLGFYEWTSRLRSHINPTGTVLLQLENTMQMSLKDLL
# Rango release inh: inhibition of RanGTP-driven Rango-importin beta dissociation; O95149+P62826; Biochemical FRET Rango-importin beta, RanGTP-induced dissociation; Potency, µM (doses to about 46.1 µM), inactives show at the highest dose activity change, negative = inhibition; 0.071% of 340,000 active; AID 540253; active means falling FRET ratio curve, often poorly fitted, with flat reads before Ran was added; inconclusive means other falling curves, or compound fluorescence or quenching; inactive means flat or rising ratio curve;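 note: potency is the fitted concentration of half-maximal effect; % of control where 0% means no effect; nearly all actives have a fitted effect of over 45% in size; -100% = wells without RanGTP and RCC1; the record marks most hits as doubtful in a second field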
#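 Compounds sat 5 min at room temperature with 0.1 uM Rango biosensor plus 0.25 uM importin beta, then FRET pre-read. RanGTP-RCC1 (0.6 uM Ran, 2mM GTP, 0.2 uM RCC1) added for 45 min, and the CFP/YFP post-read measured blocked complex dissociation.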
# miR-21 reporter: miR-21 reporter, rising signal. HeLa miR-21 FLuc reporter, luciferase, 48 h. Potency, µM (top dose mostly 38.3 µM), inactives show at the top dose reporter change, positive = more light. 340,000 tested, under 10 active. AID 2288; active = well fitted rising curve with a large enough effect; inconclusive = small, poorly fitted or top-dose-only effect; inactive = no such curve, though single readings can be large or run the other way;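 note: % of control where 0% means no effect; miR-21 action dims this reporter so a rising signal means less miR-21 action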
#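 HeLa cells stably expressing CMV-driven firefly luciferase with a downstream miR-21 binding sequence, endogenously expressing miR-21, were treated with titrations (up to about 40uM final) for 48 hours at 37 degree Celsius. Luciferase luminescence was read after lysis.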
# Rango complex inh: inhibitors of Rango-importin beta complex formation. Q14974. Rango CFP/YFP FRET sensor + importin beta, 45 min. Potency, µM (doses to about 92.2 µM), inactives show at the top dose inhibition of complex formation. 0.031% of 340,000 active; active = rising FRET ratio curve, often small or poorly fitted; inconclusive = mostly compound fluorescence or quenching in the first reads; inactive = flat curves in all reads;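 note: potency is the fitted concentration of half-maximal effect; 0% = DMSO wells and 100% = buffer wells lacking importin beta; nearly all actives have a fitted effect of over 15% in size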
#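 FRET biosensor (snurportin 1 IBB flanked by EYFP and cerulean), 50 nM, with compound 5 min, then 0.125 microM importin beta in PBS, 1 mM DTT, 0.02% Tween-20, 0.1% BSA. CFP/YFP ratio read after 45 min at room temperature; pre-read flags interference.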
# An asterisk follows results filed as active; ? = inconclusive; . = no result given; & = joins results of further samples.
SMILES,GLA inh pH 4.5,Rango release inh,miR-21 reporter,Rango complex inh
O=S(=O)(c1ccc2nc(N3CCN(c4ccccc4F)CC3)ccc2c1)N1CCCCC1,.,0%,-5%&-1%,-0.9%
CCO[C@@H]1OC(C(=O)O)=C[C@H](C)[C@H]1CCCO,-1,19%,-3%,3.5%
Cn1c(N)c(C(=O)CSc2nnc(C3CC3)n2Cc2ccccc2)c(=O)[nH]c1=O,.,-5%,.,-1.4%
Cc1ccc(NC(=O)CSc2nccn2Cc2ccco2)cc1,.,20%,-39%,-1.2%
CCC(C)Sc1ccc(-c2nc3ccc(C)cn3c2NCc2ccccc2)cc1 (stereo not given),.,-33%,.,?
CC(C)c1ccc(NC2CCCN(C(=O)CCCn3cncn3)C2)cc1 (stereo not given),.,-15%,0%,-3.6%
CC(C)Cn1nc(C(=O)OCC(=O)NCC(F)(F)F)c2ccccc2c1=O,-9,-5%,-1%,-2.6%
O=C(CSc1nc2ccccc2n1CC(=O)N1CCCC1)N1CCN(C(=O)c2ccco2)CC1,-9,1%,1%,5.3%
CCOc1c(Br)cc(/C=C2\C(=O)N(CCC#N)N=C2C)cc1OC,4,17%,-4%,1.0%
O=C(Cc1c(F)cccc1Cl)N/N=C/c1cccnc1,.,0%,-2%,5.6%
CCOCCn1c(N2CCCC2)nc2c1c(=O)n(C)c(=O)n2C,.,3%,0%,4.2%
Cc1ccc(S(=O)(=O)C(C#N)c2nc3ccccc3nc2OC(C)C)cc1 (stereo not given),1,?,-3%,?
CC[C@@]1(C(=O)OC)N[C@H](CN(C)C(=O)C2CCCCC2)[C@@H]2C(=O)N(Cc3ccccc3)C(=O)[C@@H]21,.,1%,.,0.6%
O=C(COC(=O)c1cncc(Br)c1)NCCC1=CCCCC1,1,2%,-1%,2.6%
Cc1ccc2c(c1)c1c(n2C)C(C(N)=O)CCC1 (stereo not given),4,14%,4%,-0.9%
O=c1[nH]c2ccc(S(=O)(=O)NCCO)cc2[nH]1,3,44%,2%,0.9%
O=C1CCCCC1c1cccc2ccccc12 (stereo not given),.,-3%,-3%,2.1%
Cc1cccc(-n2cc(-c3ccccc3)c3c(NN4CCOCC4)ncnc32)c1,8,-6%,-13%,-0.4%
CC(C)C(=O)OC/C(O)=C(\C#N)c1nc2ccccc2[nH]1,8,-12%,13%,?
Cc1cc(C)c(C#N)c(SCc2ccccc2)n1,-1,12%,-20%,-0.5%
Cc1ccnc(NC(=O)Nc2ccc3c(c2)N(C)C(=O)CS3)c1,7,-17%,-59%,-1.2%
CCc1nnc(NC(=O)C2(C)COC(c3ccc(OC)cc3)OC2)s1 (stereo not given),-1,8%,-9%,7.5%
CC(OC(=O)CCN=C1NS(=O)(=O)c2ccccc21)C(=O)NC1CCCCC1C (stereo not given),.,-3%,.,-4.0%
CC(C)CCNC(=O)Cc1ccc(Nc2nc(=S)[nH]c3ccccc23)cc1,-1,6%,-10%,0.8%
N#Cc1c(-c2ccccc2Cl)cc(-c2ccccc2)[nH]c1=S,5,.,1%,.

# Arranged by SMILES length (highest first): some entries from above
SMILES,GLA inh pH 4.5,Rango release inh,miR-21 reporter,Rango complex inh
CC[C@@]1(C(=O)OC)N[C@H](CN(C)C(=O)C2CCCCC2)[C@@H]2C(=O)N(Cc3ccccc3)C(=O)[C@@H]21,.,1%,.,0.6%
O=C(CSc1nc2ccccc2n1CC(=O)N1CCCC1)N1CCN(C(=O)c2ccco2)CC1,-9,1%,1%,5.3%
Cn1c(N)c(C(=O)CSc2nnc(C3CC3)n2Cc2ccccc2)c(=O)[nH]c1=O,.,-5%,.,-1.4%
O=S(=O)(c1ccc2nc(N3CCN(c4ccccc4F)CC3)ccc2c1)N1CCCCC1,.,0%,-5%&-1%,-0.9%
CC(OC(=O)CCN=C1NS(=O)(=O)c2ccccc21)C(=O)NC1CCCCC1C (stereo not given),.,-3%,.,-4.0%
Cc1cccc(-n2cc(-c3ccccc3)c3c(NN4CCOCC4)ncnc32)c1,8,-6%,-13%,-0.4%
CC(C)CCNC(=O)Cc1ccc(Nc2nc(=S)[nH]c3ccccc23)cc1,-1,6%,-10%,0.8%
CCC(C)Sc1ccc(-c2nc3ccc(C)cn3c2NCc2ccccc2)cc1 (stereo not given),.,-33%,.,?
CCOc1c(Br)cc(/C=C2\C(=O)N(CCC#N)N=C2C)cc1OC,4,17%,-4%,1.0%
CCc1nnc(NC(=O)C2(C)COC(c3ccc(OC)cc3)OC2)s1 (stereo not given),-1,8%,-9%,7.5%
CC(C)c1ccc(NC2CCCN(C(=O)CCCn3cncn3)C2)cc1 (stereo not given),.,-15%,0%,-3.6%
N#Cc1c(-c2ccccc2Cl)cc(-c2ccccc2)[nH]c1=S,5,.,1%,.
CCOCCn1c(N2CCCC2)nc2c1c(=O)n(C)c(=O)n2C,.,3%,0%,4.2%
O=C(COC(=O)c1cncc(Br)c1)NCCC1=CCCCC1,1,2%,-1%,2.6%
Cc1ccc(NC(=O)CSc2nccn2Cc2ccco2)cc1,.,20%,-39%,-1.2%
Cc1ccc2c(c1)c1c(n2C)C(C(N)=O)CCC1 (stereo not given),4,14%,4%,-0.9%
Cc1cc(C)c(C#N)c(SCc2ccccc2)n1,-1,12%,-20%,-0.5%
O=C1CCCCC1c1cccc2ccccc12 (stereo not given),.,-3%,-3%,2.1%

# More results follow.
SMILES,GLA inh pH 4.5,Rango release inh,miR-21 reporter,Rango complex inh
CC(=O)N1CCCN(Cc2cn(-c3ccc(C)cc3)nc2-c2ccc(F)cc2)CC1,-14,-5%,0%,1.8%
COc1ccccc1NC(=O)CCC(=O)OC(C)C(=O)c1ccccc1 (stereo not given),.,-14%,7%,-1.2%
COc1cc(NC(=O)c2cccc3c2C(=O)N(C2CCCCC2)C3)cc(OC)c1OC,.,-3%,18%&20%,-3.1%
COc1ccc(N(CC(=O)NCCSc2ccccc2)S(=O)(=O)c2ccccc2)cc1,.,-1%,18%,1.3%
O=C1CN(C(=O)c2cc(Br)c(Br)s2)c2ccccc2N1,4,13%,18%,3.1%
CC1CCCCN1CCCNC(=O)CCCN1C(=O)c2cccnc2Sc2ccccc21 (stereo not given),.,2%,2%,0.6%
CCCC(C)NC(C)C(=O)NC1CCCC1 (stereo not given),-4,8%,-5%,-0.1%
COC(=O)c1ccccc1NC(=O)CSc1nccn1C,2,-4%,0%,-1.5%
CN1CCc2c(sc3nc(SCC(N)=O)n(-c4ccccc4)c(=O)c23)C1,-3,?,-2%,?
Cc1cccc(NC(=O)CSc2ccc(-c3cccs3)nn2)c1C,3,-2%,-18%,-3.0%
COc1cc(/C=C2/SC(=S)N(Cc3ccccc3)C2=O)cc(OC)c1O,.,?,3%,?
COc1cc(CCC(=O)OCC(=O)N(CCC#N)c2ccccc2)cc(OC)c1OC,.,-1%,8%,3.4%
COc1ccccc1NC(=O)Cc1noc(CSc2cc(C)c3ccccc3n2)n1,-1,-3%,-4%,?
O=C(Nc1ccc(Br)cc1)C1CCCC1,.,13%,-17%,2.2%
O=C(Nc1ccc(Cl)c(Cl)c1)N1CCCCCC1,.,1%,-52%,-0.2%
CCOC(=O)CCC(=O)Nc1ncnc2c1C(c1ccccc1)c1c(ccc3ccccc13)O2 (stereo not given),.,14%,.,-1.9%
Cc1ccnc(NS(=O)(=O)c2ccc(NC(=O)c3cncc(Br)c3)cc2)n1,1,16%,-3%,2.0%
CCC(CC)C(=O)Nc1cccc(C(=O)NCCc2ccccc2)c1,-2,8%,-39%,0.1%
CC1(C)CC(=O)C2=C(C1)N(c1ncn[nH]1)C(N)=C(C#N)C2c1ccccc1 (stereo not given),3,0%,-10%,-2.7%
CSc1ncccc1C(=O)NCC12CC3CC(CC(C3)C1)C2,1,14%,-8%,0.1%
O=C(O)C1CSC(c2ccco2)N1 (stereo not given),.,-9%,-11%,-1.0%
Cc1cccc(NC(=O)CCN2CCN(C)CC2)c1,.,0%,-2%,0.2%
Fc1cccc(NC(=S)NC2CCCCCCC2)c1,.,18%,7%,2.7%
O=C(Cn1ccc(NC(=O)OCc2ccccc2)nc1=O)NCCCN1CCCC1=O,.,-1%,.,-4.8%
Cc1ccnc(N=O)c1,.,-21%,.,?
Cc1nc2cc(C(=O)OCC(=O)NC3CCS(=O)(=O)C3)ccc2n1-c1ccccc1 (stereo not given),-16,-4%,-13%,-0.3%
COc1ccc(C)cc1S(=O)(=O)N(CC(=O)O)c1ccc(F)cc1,6,12%,1%,0.7%
O=C(NCC(=O)N1CCN(c2ccccc2)CC1)c1ccc(Cl)cc1,.,9%,4%,-0.9%

# This is a subset; rates above refer to the full screens.
